Screens from PubChem.
Cruzain Triton: cruzain (T. cruzi) inhibition with detergent; P25779; purified cruzain, Z-FR-AMC fluorescence, 0.01% Triton; Potency, µM, inactives show max response, negative = inhibition, usual class: inhibitors; hit rate 0.43% among 200,000; AID 1478;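 note: plate controls were neutral wells for no effect and buffer without enzyme for full effect; nearly all actives have a fitted effect of over 40% in size; top concentration of the series not given in the record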
Target sequence (P25779 123-467 limits assumed): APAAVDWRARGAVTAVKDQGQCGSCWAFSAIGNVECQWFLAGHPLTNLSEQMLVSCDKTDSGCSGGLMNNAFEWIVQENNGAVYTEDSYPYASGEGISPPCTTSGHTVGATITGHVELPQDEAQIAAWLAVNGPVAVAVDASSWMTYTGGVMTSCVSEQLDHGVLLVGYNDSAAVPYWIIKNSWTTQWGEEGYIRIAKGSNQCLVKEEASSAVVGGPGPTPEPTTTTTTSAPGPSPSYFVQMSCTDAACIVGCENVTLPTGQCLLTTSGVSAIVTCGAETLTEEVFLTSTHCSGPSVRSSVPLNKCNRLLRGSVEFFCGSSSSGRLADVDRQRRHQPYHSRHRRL
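Sodium acetate buffer (100 mM, pH 5.5) containing 5 mM DTT and 0.01% Triton X-100 hosted 1.5 nM cruzain and test compound for 15 min at room temperature. Cleavage of 2 uM Z-FR-AMC was then tracked by fluorescence.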
Cruzain inh noDet: inhibitors of Trypanosoma cruzi cruzain without detergent; P25779; purified cruzain, Z-FR-AMC fluorescence, no detergent; Potency, µM, without a hit: max response, negative = inhibition, actives largely listed as inhibitors; hit rate 2.3% among 200,000;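 note: plate controls were enzyme without inhibitor for no effect and buffer without enzyme for full effect; nearly all actives have a fitted effect of over 40% in size; top concentration of the series not given in the record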
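Detergent-free condition (0.00005% Triton X-100) in acetate buffer pH 5.5 with DTT. 1.5 nM enzyme and compound were pre-mixed 15 min, then 2 uM Z-FR-AMC substrate added; reaction progress from fluorescence change between first and third reads (60 s).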
An asterisk follows results filed as active; ? = inconclusive; & = joins results of further samples. Calls come from the whole dose curve; as a rule, active = well fitted curve in the direction sought with a large enough effect; inconclusive = small, poorly fitted or top-dose-only effect, or another doubt; inactive = no such curve, though single readings can be large; an effect the other way counts as inactive or inconclusive. Potency is the fitted concentration of half-maximal effect. A portion of the library; rates above refer to the full screens.

A first look (2 entries):
compound,Cruzain Triton,Cruzain inh noDet
CCC(=O)/C=C/C1C(C)=CCCC1(C)C (stereo not given),1.0%,-1%
COC1=CC(=O)OC(CCc2ccccc2)C1 (stereo not given),-1.0%,2%

This part in full, previewed entries included:
compound,Cruzain Triton,Cruzain inh noDet
CCC(=O)/C=C/C1C(C)=CCCC1(C)C (stereo not given),1.0%,-1%
COC1=CC(=O)OC(CCc2ccccc2)C1 (stereo not given),-1.0%,2%
CN(C)c1ccc(C(=N)c2ccc(N(C)C)cc2)cc1,-11%,-13%
C=C(C[C@]1(C(=O)OC)CC2(CC=C(C)C)C(=O)C(C(=O)CC(C)C)=C(O)C(CC=C(C)C)(C1)C2=O)C(=O)OC (stereo not given in full),-2.9%,?
O=C(O)CCC(=O)O,1.4%,-4%
COC(=O)[C@@]1(Cc2ccc(OC)cc2)[C@H]2c3cc(C(=O)N4CCCC4)n(Cc4ccc(C(F)(F)F)nc4)c3C[C@H]2CN1C(=O)c1ccccc1,-7.4%,?
CC(=O)N[C@H](c1ccccc1)[C@@]1(C)C[C@@H]1[C@@H](C)C(=O)Nc1ccc2ccccc2c1,-4.2%,-4%
CCOC(=O)C1=CC(OC(CC)CC)C(NC(C)=O)C(N)C1 (stereo not given),-0.8%,-13%
COC(=O)[C@@H]1C[C@H]1[C@@H](NS(=O)(=O)c1ccc(-c2ccccc2)cc1)c1ccccc1,-6.7%,1%
O=C(OC[C@@H](O)CO)c1ccccc1Nc1ccnc2cc(Cl)ccc12,-7.2%,-13%
CC(C)=C1C(=O)C(c2ccccc2)=C2CN3C(=O)N(CCc4ccccc4)C(=O)[C@]3(Cc3ccc(C(F)(F)F)cc3)[C@H]21,-5.9%,-29%
CO[C@@H](CCO)C[C@H]1O[C@H](C(=O)OC(C)C)CC[C@@H]1C,0.2%,-4%

Sorted by formula weight (lowest first): 5 of the compounds above.
compound,Cruzain Triton,Cruzain inh noDet
O=C(O)CCC(=O)O,1.4%,-4%
CN(C)c1ccc(C(=N)c2ccc(N(C)C)cc2)cc1,-11%,-13%
CO[C@@H](CCO)C[C@H]1O[C@H](C(=O)OC(C)C)CC[C@@H]1C,0.2%,-4%
CC(=O)N[C@H](c1ccccc1)[C@@]1(C)C[C@@H]1[C@@H](C)C(=O)Nc1ccc2ccccc2c1,-4.2%,-4%
C=C(C[C@]1(C(=O)OC)CC2(CC=C(C)C)C(=O)C(C(=O)CC(C)C)=C(O)C(CC=C(C)C)(C1)C2=O)C(=O)OC (stereo not given in full),-2.9%,?

Further entries follow.
compound,Cruzain Triton,Cruzain inh noDet
N#CC(Cl)(Cl)Cl,-0.3%,3%
C=CC(=O)OCCCC,6.4%,-3%
CCCn1c(-c2ccc(F)cc2)nc2c(NCCN3CCCC3)nc(C)nc21,-1.0%,-10%
CC(C)(C)C(=O)OCOP(=O)(OCOC(=O)C(C)(C)C)C(C)(Oc1ccc(O)cc1)P(=O)(OCOC(=O)C(C)(C)C)OCOC(=O)C(C)(C)C,3.5%,?
CC12C=C(/C=C/c3ccc(Br)cc3)C(C)(C1)[C@H](c1ccc(Br)cc1)CC2=O (stereo not given in full),0.9%,?
C=C[C@H]1CN2CC[C@@H]1C[C@H]2[C@@H](O)c1ccnc2ccccc12,2.2%&0.2%,5%&-2%
COc1cccc([C@@H]2Oc3ccc(OC)cc3C[C@H]2O)c1,-1.2%,-4%
COC(=O)c1ccc(C(NC(=O)OCc2ccccc2)/C(F)=C/[C@@H](C)C(=O)NCc2cccnc2)cc1 (stereo not given in full),-7.9%,27%
NC(=S)Nc1ccccc1,2.6%&2.2%,0%&-5%
COCCn1c(C(=O)N2CCCC2)cc2c1C[C@H]1CN(C(=O)c3ccccc3)[C@@](Cc3ccccc3)(C(=O)OC)[C@@H]21,-1.4%,?
COc1ccc2c(c1)C(=O)[C@H](OC(=O)N[C@H](C)C1CCCCC1)[C@@H](c1ccc(OC)c(Br)c1)O2,2.5%,-5%
COc1ccc(N)cc1,2.6%&6.3%,0%&-3%
C=CC[C@@](C(C)=O)(C(=O)OC)C(NC(=O)OC(C)(C)C)c1ccccc1 (stereo not given in full),4.4%,-13%
COC(=O)c1ccc(C(NC(=O)OCc2ccccc2)/C(C)=C/[C@@H](C)C(=O)NCCc2c[nH]c3ccc(OC)cc23)cc1 (stereo not given in full),-2.8%,-4%
C=CCC(C)(O)CCc1ccccc1 (stereo not given),3.6%,-6%
Oc1c(Cl)cccc1Cl,2.3%,0%
COc1ccc2c3c1OC1C[C@@H](O)C=C[C@@]31CCN(C)C2 (stereo not given in full),-0.6%&1.6%,5%&-8%
C/C=C(\C)[C@H](O)C[Si](C)(C)c1ccccc1,0.0%,-9%
Nc1ccc(-c2ccc(N)c(O)c2)cc1O,-13%,?
COc1cccc([C@@H]2Oc3ccc(Br)cc3C[C@H]2OC(=O)N[C@H]2CCCc3ccccc32)c1,4.2%,?
CCN1CCCC1Cn1c(-c2ccccc2)nc2c(N3CCOCC3)nc(C)nc21 (stereo not given),3.1%,-3%
Cc1cccc(CN2CCN([C@@H](c3ccccc3)c3ccc(Cl)cc3)CC2)c1,-5.3%,7%
O=c1cc(-c2cccc(O)c2O)oc2ccccc12,-7.4%,4%
CN[C@]1(C)[C@H]2CC[C@@H](C2)C1(C)C,-6.6%,-7%
C=CC(=O)OCCOCCOC(=O)C=C,3.8%,-10%
CC(C)C[C@@H](CC(=O)N[C@@H](CCCN)CC(=O)N[C@@H]1CCNC[C@H]1C(=O)N[C@H](CC(=O)N[C@@H](CCC(=O)O)CC(=O)O)CC(C)C)NC(=O)[C@@H]1CCCC[C@H]1N,0.7%,6%
COC(=O)[C@@]1(Cc2ccc(F)cc2)[C@H]2c3cc(C(=O)N4CCCC4)n(CCc4c[nH]c5cc(F)ccc45)c3C[C@H]2CN1C(=O)c1ccccc1,-0.2%,?
CC/C=C\C/C=C\C/C=C\C/C=C\C/C=C\CCCC(=O)NC(C)C(=O)O (stereo not given),2.5%,6%
CCOC(=O)c1c(N)sc(C)c1-c1ccccc1,-4.3%,3%
CCOC(=O)CNC(=O)O[C@@H]1C(=O)c2ccc(OC)cc2O[C@H]1c1ccc2c(c1)OCO2,0.7%,8%
CCCCC[C@H](O)/C=C/[C@H]1OC(O)C[C@H](O)[C@@H]1C/C=C\CC(=O)O (stereo not given in full),1.2%,-16%
C#CCCCC(=S)Nc1ccccc1,1.3%,-5%
O=c1ccc(=O)[nH][nH]1,0.6%,-5%
COC(=O)[C@@]1(Cc2ccccc2)[C@H]2c3cc(C(=O)N(C)C)n(C)c3C[C@H]2CN1C(=O)c1ccccc1,4.0%,?
O=c1ccc2cc(OC3OC(CO)C(O)C(O)C3O)c(O)cc2o1 (stereo not given),7.9µM*,13µM*
OCCBr,4.7%,-3%
COc1cccc2oc(-c3ccc(O)cc3)cc(=O)c12,-3.3%,8%
CCCCCCCCc1[se]c2ccccc2c1[Se]c1ccccc1,0.9%,-14%
CC[C@@]1(O)C(=O)OCc2c1cc1n(c2=O)-c2cc3ccccc3nc2C1,0.2%,-2%
NCCC[C@@H](CC(=O)N[C@@H]1CCNC[C@H]1C(=O)N[C@H](CC(=O)N[C@@H](CCC(=O)O)CC(=O)O)Cc1c[nH]c2ccccc12)NC(=O)C[C@H](Cc1ccccc1)NC(=O)[C@@H]1CCCC[C@H]1N,-1.1%,7%
CCC1=C2CC[C@H]3C(=O)N(c4ccccc4)C(=O)[C@H]3[C@H]2[C@@]2(Cc3ccccc3)C(=O)N(CC(=O)OC)C(=O)N2C1=O,-5.9%,8%
C=CCC(C)(O)c1cccc(Br)c1 (stereo not given),1.3%,14%
C[C@H](O)Cn1cnc2c1c(=O)n(C)c(=O)n2C,-1.6%,-5%
COC(=O)[C@@H](NC(=O)O[C@@H]1C(=O)c2ccc(OC)cc2O[C@H]1c1ccc2c(c1)OCO2)C(C)C,-2.8%,12%
CCCCC/C=C\C/C=C\C/C=C\C/C=C\CCCC(=O)N(Cc1ccc(O)c(Cl)c1)Cc1ccc(O)c(Cl)c1,?,?
CCC1CO1 (stereo not given),4.1%,-7%
NCC1O[C@@H](O[C@@H]2C(O)[C@H](O[C@H]3OC(CO)C(O)C(N)C3O)[C@@H](N)C[C@H]2N)C(N)C(O)C1O (stereo not given in full),2.8%,1%
CCCCC/C=C\C/C=C\C/C=C\CCCCC(=O)NCCc1ccc(O)c(O)c1,-2.1%,-3%
COc1ccc(Cl)cc1-c1ccc(C(=O)O)s1,-15%,-20%
CCCCC/C=C\C[C@@H](O)/C=C/C=C/C=C/[C@@H](O)CCCC(=O)O,2.6%,-4%
COc1ccc(C[C@H]2c3cc(OC)c(OC)cc3CCN2C)cc1OC,0.2%,-13%
CC(=O)[C@H]1[C@H](C#N)CC2C3CC=C4C[C@@H](O)CCC4(C)C3CCC21C (stereo not given in full),-3.5%,-9%
CC1(C)SC2C(NC(=O)C(C(=O)O)c3ccccc3)C(=O)N2C1C(=O)O (stereo not given),-5.5%,-7%
CC(C)=C1C(=O)C(c2ccccc2)=C2CN3C(=O)N(CCc4ccccc4)C(=O)[C@]3(C)[C@H]21,-2.6%,-21%
CCCCC/C=C\C/C=C\C/C=C\C/C=C\CCCC(=O)C(F)(F)F,4.1%,12%
C(=C/c1ccccc1)/c1ccccc1,-3.3%,1%
COc1ccc(C2OCC3(COC(C)=O)C(C)C=C(C)C2C3C)cc1 (stereo not given),-5.9%,13%
CCCC[C@@H]1C[C@H]1C(NS(=O)(=O)c1cccc2cccnc12)c1ccc(-c2ccccc2)cc1 (stereo not given in full),0.0%,?
CCCn1c(-c2ccc(F)cc2)nc2c(N(C)CCN(C)C)nc(C)nc21,-1.2%,0%
C/C=C/C=O,2.9%,7%

Next part.
compound,Cruzain Triton,Cruzain inh noDet
COC(=O)[C@@]1(Cc2ccccc2)[C@H]2c3cc(C(=O)N4CCCC4)n(Cc4ccc(OC)c(OC)c4)c3C[C@H]2CN1C(=O)c1ccccc1,-2.6%,?
Clc1ccccc1Cl,5.7%,0%
COC(=O)[C@@]1(Cc2ccccc2)[C@H]2c3cc(C(=O)N4CCCC4)n(Cc4c(CO)[nH]cc(C)c4=O)c3C[C@H]2CN1C(=O)c1ccccc1,-2.1%,?
COC(=O)c1ccc(C(NC(=O)OCc2ccccc2)/C(=C/[C@@H](C)C(=O)NCc2ccc(-c3ccccc3)cc2)c2cccnc2)cc1 (stereo not given in full),1.7%,-22%
O=c1ccc2cc(O[C@H]3O[C@@H](CO)[C@@H](O)[C@@H](O)[C@@H]3O)c(O)cc2o1,-12%,?
O=C(O)C(Br)Br,-1.1%,-4%
CC[C@H]1CN2CC[C@@H]1C[C@H]2[C@@H](O)c1ccnc2ccc(OC)cc12,2.4%,-17%
C[C@H]1CC[C@@]2(NC1)O[C@@H]1C[C@H]3[C@@H]4CC=C5C[C@@H](O)CC[C@]5(C)[C@@H]4CC[C@]3(C)[C@@H]1[C@@H]2C,-3.5%,-4%
CC(C)(C)OC(=O)N1CC[C@H]1COc1cnc[c]([Sn]([CH3])([CH3])[CH3])c1,1.1%,4%
CCc1c2c(nc3ccc(OC)cc13)OC(CC)C2 (stereo not given),-4.5%,-3%
CCCCNC(=O)NS(=O)(=O)c1ccc(N)cc1,-0.3%,-2%
Nc1ccc(Cl)cc1,-3.5%,-2%
CCC(C(=O)O)C1CCC(C)C(C(C)C(O)C(C)C(=O)C(CC)C2OC3(C=CC(O)[C@@]4(CC[C@](C)(C5CC[C@@](O)(CC)C(C)O5)O4)O3)C(C)CC2C)O1 (stereo not given in full),-0.2%,?
CCCCC/C=C\C/C=C\C/C=C\C/C=C\CCCCCC(N)=O,4.2%,-18%
N#Cc1cccc(CS(=O)(=O)c2nnnn2-c2cc(C(F)(F)F)cc(C(F)(F)F)c2)c1,6.2%,-1%
